B2AR ag – beta2AR agonists driving receptor internalization, primary screen, cell-based, FAP fluorogen, flow cytometry | Beta-2 adrenergic receptor (Homo sapiens), P07550 | Am2.2-beta2AR cells; reference of the scale not given here | response, % (test concentration not listed) | hit rate 0.43% among 340,000 | AID 504454, 2011;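 active = response above a set limit, near 3 SD of response in nonfluorescent compounds, cut at about 42% in these data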;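 note: stock transfer was 100 nL into about 11 µL; a reference agonist was the positive control; negative values mostly stem from fluorescent compounds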
Target sequence (P07550 whole entry, looked up): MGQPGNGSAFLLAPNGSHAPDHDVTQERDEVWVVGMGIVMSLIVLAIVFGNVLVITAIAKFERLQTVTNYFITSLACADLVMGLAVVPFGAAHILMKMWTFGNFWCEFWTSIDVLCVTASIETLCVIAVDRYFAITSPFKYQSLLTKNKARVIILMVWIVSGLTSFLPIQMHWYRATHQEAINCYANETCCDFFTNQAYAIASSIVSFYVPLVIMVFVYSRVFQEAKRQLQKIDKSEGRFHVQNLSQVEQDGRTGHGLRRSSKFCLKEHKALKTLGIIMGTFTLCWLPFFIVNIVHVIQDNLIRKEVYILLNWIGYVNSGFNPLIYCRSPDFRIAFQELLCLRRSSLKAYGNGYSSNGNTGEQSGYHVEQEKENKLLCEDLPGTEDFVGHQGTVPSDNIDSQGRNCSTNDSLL
UCH37 inh – inhibitors of human UCH37 deubiquitinase, primary screen, biochemical, Ub-AMC cleavage, fluorescence. purified proteasome/UCH37. hit rate 0.33% among 330,000. inhibition, % (test concentration not listed);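 active = mean of two replicates above 20%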;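 note: 0% = compound-free wells with enzyme and 100% = wells lacking proteasome; stock transfer was 100 nL into about 20 µL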
Target sequence (Q9Y5K5 whole entry, looked up): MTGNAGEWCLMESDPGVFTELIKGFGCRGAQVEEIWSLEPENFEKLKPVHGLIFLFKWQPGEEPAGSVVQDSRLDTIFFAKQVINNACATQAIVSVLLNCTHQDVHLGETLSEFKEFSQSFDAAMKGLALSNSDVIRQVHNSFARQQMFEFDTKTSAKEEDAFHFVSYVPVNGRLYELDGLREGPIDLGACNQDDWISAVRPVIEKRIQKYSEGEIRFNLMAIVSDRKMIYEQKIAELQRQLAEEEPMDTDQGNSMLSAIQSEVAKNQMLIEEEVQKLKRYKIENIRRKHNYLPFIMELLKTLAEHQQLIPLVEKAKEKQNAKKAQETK
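assay system = human UCH37 enzyme supplied as purified proteasome complex | amount = proteasome at 0.15 nM in the dispensed enzyme solution | schedule = 30 min compound-proteasome preincubation then 25 min substrate reaction, room temperature | measured by = fluorescence, ex 355 nm, em 460 nm | benchmarks = no-proteasome wells (full inhibition) and compound-free wells (no inhibition)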
* = called active by the depositor.

SMILES	B2AR ag	UCH37 inh
COc1ccc(C(CNC(=O)CCNS(=O)(=O)c2ccccc2C(F)(F)F)N2CCOCC2)cc1 (stereo not given)	-4	1.1
COc1ccc(NC(=O)Cc2ccc(Cl)cc2)cc1S(=O)(=O)N1CCCCC1	0	1.3
COCCCNC(=O)C[C@H]1C[C@H](C(=O)N2CCCCC2)[C@@]2(C)c3[nH]c4cc(-c5ccco5)ccc4c3CCN2C1=O	8	-13
CCCCOc1ccc(C(=O)NCC(=O)NC2CC2)cc1	-8	-0.2
NNC(=O)c1ccc2ccccc2n1	4	0.4
N#CCSc1ccccc1NC(=O)COC(=O)CCNC(=O)c1ccc([N+](=O)[O-])cc1	-31	3.9
CN(C)c1ccc(CNC(=O)CCc2ccc(S(=O)(=O)N3CCCCCC3)cc2)cc1	4	-0.1
CC(C)(C)S(=O)N1Cc2cc(CO)ccc2[C@@H]1CCO (stereo not given in full)	0	4.8
CN(C)C(=O)c1ccc(NC(=O)CSc2nnc(-c3ccc4c(c3)OCO4)o2)cc1	-1	0.7
Cc1ccc(S(=O)(=O)Nc2ccc3c(c2)C(=O)N([C@H](C)CO)C[C@H](C)[C@@H](CN(C)C(=O)Nc2ccc(C(F)(F)F)cc2)O3)cc1	9	3.7
COc1ccc(C(=O)Nc2nc3nc(-c4ccccc4)cc(=O)n3[nH]2)cc1	-4	-2.7
CCN(c1ccccc1)S(=O)(=O)c1ccc(OC)c(NC(=O)c2cc(Cl)ccn2)c1	-1	-20
CC1=CC(=NNS(=O)(=O)c2ccc([N+](=O)[O-])cc2)CC(C)(C)C1	-3	6.0
CCOC(=O)C1=CN(Cc2cccc(F)c2)S(=O)(=O)N(C)C1CCc1ccccc1 (stereo not given)	-2	1.7
CCCCCCOC(=O)CC1CC(C(C)=O)C1(C)C (stereo not given)	-3	1.1

Compounds listed so far that contain a nitro group on carbon, in the order listed:
SMILES	B2AR ag	UCH37 inh
N#CCSc1ccccc1NC(=O)COC(=O)CCNC(=O)c1ccc([N+](=O)[O-])cc1	-31	3.9
CC1=CC(=NNS(=O)(=O)c2ccc([N+](=O)[O-])cc2)CC(C)(C)C1	-3	6.0

Other records follow.
SMILES	B2AR ag	UCH37 inh
COCCN(CC(=O)Nc1cccc(C)c1C)C(=O)c1cc2ccccc2cc1OC	-12	-4.1
COC(=O)c1ccc(Cn2cnc3c(N)ncnc32)cc1	3	1.1
Cc1ccc(S(=O)(=O)N2CCN(C(=O)COC(=O)/C=C/c3ccc(C(F)(F)F)cc3)CC2)c(C)c1	10	3.4
CCc1ccccc1NC(=O)CN(C)C(=O)COC(=O)c1ccccc1Cl	2	0.4
CCOc1ccc(-n2c(SCC(=O)Nc3ccc4c(c3)OCO4)nc3c(c2=O)SCC3)cc1	-16	3.9
Cc1cccc(NC(=O)COC(=O)CC2CCCC2)c1C	2	0.9
CCOC(=O)C1=C(C)N(C[C@@H]2CC[C@@H](Cc3ccc(-c4ccccc4)cc3)O2)C(=O)NC1c1ccc(SCc2ccco2)c([N+](=O)[O-])c1 (stereo not given in full)	0	2.9
CCCCc1c(C)nc2ccc(Br)cc2c1SC(N)N	9	4.6
CCCCc1ccc(NS(=O)(=O)c2cccc(C(=O)N3CCNC(=O)C3)c2)cc1	-4	0.4
COc1ccc(NC(=O)COc2ccc(-n3cnnn3)cc2)cc1OC	-4	3.9
COc1ccccc1CCNC(=O)c1cc(-c2ccccn2)nc2ccccc12	3	0.7
O=C(CN1CCN(S(=O)(=O)c2ccc(Cl)cc2)CC1)N1CCCC1	-4	3.0
O=C(NNC(=O)c1ccc2ccccc2c1)c1cccc(F)c1	-6	2.7
COc1c(O)cc(O)c2c(=O)cc(-c3ccccc3)oc12	7	5.3
O=C(c1ccc2c(c1)OCO2)N1CCN(CCN2C(=O)c3cccc4cccc(c34)C2=O)CC1	-1	3.5
CC1(CCOCc2ccccc2)NC(=O)NC1=O (stereo not given)	2	0.8
O=C(NN=Cc1ccccc1O)c1cccc([N+](=O)[O-])c1	-1	1.7
COCCCn1c(=N)c(C(=O)NCc2ccc3c(c2)OCO3)cc2c(=O)n3cccc(C)c3nc21	11	-1.2
CN1C(=O)C(N=Nc2ccc([N+](=O)[O-])cc2)SC1=S (stereo not given)	12	7.2
CO[C@H]1CC[C@@]2(C)[C@@H](CC[C@@H]3[C@@H]2CC[C@@]2(C)[C@H]3C[C@H](C(=O)O)O[C@]23CCCO3)C1	2	1.2
O=C(CN1CCCCC1)NC(=O)Nc1ccccc1F	3	1.2
COc1ccc(C(=O)C2CC2)cc1	5	0.7
O=C(COC(=O)c1cc(S(=O)(=O)N2CCOCC2)ccc1Cl)Nc1ccccc1Cl	2	-1.3
CC(C)Oc1ccc(S(=O)(=O)N2CCOCC2)cc1NC(=O)CCCSc1ccccc1	5	5.6
Cc1ccc(S(=O)(=O)NCC(NCc2ccc(F)cc2)c2ccccc2)cc1 (stereo not given)	-6	2.0
CC(NC(=O)CN1C(=O)NC2(CCCCC2)C1=O)c1ccc(S(N)(=O)=O)cc1 (stereo not given)	-6	4.2
CC[C@@]1(C(=O)OC)N[C@H](CN(C)S(=O)(=O)c2ccc(-c3ccccc3)cc2)[C@@H]2C(=O)N(Cc3ccccc3)C(=O)[C@@H]21	8	6.8
Cc1cccc(NS(=O)(=O)c2ccc(C)c(NS(=O)(=O)c3cccs3)c2)c1	-1	1.5
CN(C)c1ccc(S(=O)(=O)NCC(=O)N2CCN(S(=O)(=O)c3cccc(F)c3)CC2)cc1[N+](=O)[O-]	0	3.4
C=CCN(c1ccccc1OC)S(=O)(=O)c1cccc(C(=O)OCC(=O)c2c(N)n(C)c(=O)n(C)c2=O)c1	22	-2.6
COc1cc2oc(=O)cc(-c3cccc(-c4cccc(C)c4)c3)c2c(OC)c1OC	2	-4.5
O=C1CCN(Cc2ccc(Cl)cc2Cl)C(=O)N1	4	3.9
COc1cccc(NC(=O)CN(C)C(=O)/C=C/c2cn(-c3ccccc3)nc2-c2ccc(OC)c(OC)c2)c1	-4	-171
CCN1C(=O)[C@H]2[C@H]3CN=C(SCc4ccc(OC)cc4)N3[C@@](CC)(C(=O)OC)[C@H]2C1=O	3	-2.6
O=C(c1ccc(=O)[nH]n1)N1CCN(S(=O)(=O)c2cccc(F)c2)CC1	2	2.5
O=c1[nH]c(=S)[nH]cc1Oc1ccc(Br)cc1Br	9	3.0
COC(=O)/C=C/c1sc2nc(C)cc(C)c2c1N=CN(C)C	-9	1.8
CCN1CCN(c2oc(-c3ccccc3C)nc2S(=O)(=O)c2ccccc2)CC1	4	3.0
COc1cccc(NC(=O)CN(C)C(=O)C(C)Sc2ccccc2)c1 (stereo not given)	3	1.2
COc1ccc(C(=O)OCC(=O)NCC2CCCCC2)cc1F	-3	0.6
Cc1cc2nc3c(=O)n(C4CCCCC4)c(=O)[nH]c3nc2cc1N	-38	-1.3
Cc1cccc(C=CC(=O)c2ccccc2)c1	5	1.2
COc1cccc(C(=O)C(=O)c2cccc(OC)c2OC)c1OC	0	3.1
CSc1nc(N)c2c(n1)N(C)C=NS2(=O)=O	1	2.6
Cc1ccc(NC2=Nc3ccccc3N3C2=Nc2c(c(C)nn2-c2ccccc2)C3c2ccc(O)c(O)c2)cc1 (stereo not given)	0	-4.6

Sorted by heavy-atom count (ascending): six of the compounds above
SMILES	B2AR ag	UCH37 inh
COc1ccc(C(=O)OCC(=O)NCC2CCCCC2)cc1F	-3	0.6
COc1cccc(C(=O)C(=O)c2cccc(OC)c2OC)c1OC	0	3.1
COc1cccc(NC(=O)CN(C)C(=O)C(C)Sc2ccccc2)c1 (stereo not given)	3	1.2
CCN1CCN(c2oc(-c3ccccc3C)nc2S(=O)(=O)c2ccccc2)CC1	4	3.0
COc1cc2oc(=O)cc(-c3cccc(-c4cccc(C)c4)c3)c2c(OC)c1OC	2	-4.5
CCN1C(=O)[C@H]2[C@H]3CN=C(SCc4ccc(OC)cc4)N3[C@@](CC)(C(=O)OC)[C@H]2C1=O	3	-2.6

(next part)
SMILES	B2AR ag	UCH37 inh
CCOC(=O)C1=CNS(=O)(=O)NC1c1ccc(C#N)cc1 (stereo not given)	-7	-3.0
CSCCC(NC(=O)c1ccccc1Cl)C(=O)NCC(c1cccs1)N(C)C (stereo not given)	-5	3.4
COc1cccc(/C=C/C(=O)Nc2cc(S(=O)(=O)N3CCOCC3)ccc2OC)c1	6	2.5
CC(=O)Nc1cccc(C(=O)OCC(=O)N2CCN(C(=O)COC(=O)c3cccc(NC(C)=O)c3)CC2)c1	-2	-1.1
Cc1ccc(S(=O)(=O)N2CCN(C(=O)COC(=O)COc3ccccc3C(C)C)CC2)c(C)c1	11	3.0
O=c1[nH]c2ccccc2n2c(-c3ccncc3)nnc12	-2	0.9
CC(Sc1nnc(C2CC2)n1-c1ccccc1)C(=O)N1CCNC1=O (stereo not given)	1	1.9
COc1ccc(C=NNC(=O)NN=Cc2ccc(OC)c(OC)c2)cc1OC	1	-66
N#CC1(Nc2ccc(Br)cc2)CCCC1	3	2.9
C[C@H]1C(c2ccc(F)cc2)=NN(c2ccccc2)[C@@H]1CO	1	-405
CCOc1ccc(S(=O)(=O)N(C)c2ccc(OCC(=O)Nc3ccccc3F)cc2)cc1	3	0.5
CCCCn1cnc2c(SCc3ccc(Cl)cc3)nc(N)nc21	-6	-0.1
CCN1C(=O)[C@H]2[C@H]3CN=C(SCC(=O)c4ccccc4)N3[C@@](C)(C(=O)OC)[C@H]2C1=O	-1	4.2
COc1cc(OC)cc(C(=O)N(Cc2ccco2)c2c(N)n(Cc3ccccc3)c(=O)[nH]c2=O)c1	0	1.1
N#Cc1ccc(Cl)cc1NC(=O)CNc1cccc(S(=O)(=O)N2CCCC2)c1	6	0.6

Shown with each value named: four of the compounds above
> N#Cc1ccc(Cl)cc1NC(=O)CNc1cccc(S(=O)(=O)N2CCCC2)c1
  B2AR ag = 6
  UCH37 inh = 0.6
> CCOC(=O)C1=CNS(=O)(=O)NC1c1ccc(C#N)cc1 (stereo not given)
  B2AR ag = -7
  UCH37 inh = -3.0
> CCCCn1cnc2c(SCc3ccc(Cl)cc3)nc(N)nc21
  B2AR ag = -6
  UCH37 inh = -0.1
> COc1cc(OC)cc(C(=O)N(Cc2ccco2)c2c(N)n(Cc3ccccc3)c(=O)[nH]c2=O)c1
  B2AR ag = 0
  UCH37 inh = 1.1

The list goes on:
SMILES	B2AR ag	UCH37 inh
Cc1ccc2nc(-c3cccc(SC4CCCCC4)c3)c(NCc3ccccc3)n2c1	13	-162
COc1ccc(CCC2(C)OCC(CCCCO)O2)cc1 (stereo not given)	-1	1.3
COc1cc(OC)c(C(=O)OCC(=O)NCC2CCCCC2)cc1OC	7	1.5
COc1ccc(C(CNC(=O)c2ccc(C)c(S(=O)(=O)N3CCCCC3)c2)N2CCCC2)cc1 (stereo not given)	14	1.0
Cc1nc(CN2CCN(S(=O)(=O)c3c(Cl)cc(Br)cc3Cl)CC2)cs1	-19	3.9
COc1ccc(NC(=O)c2ccc(NC(=O)c3nc4nc(C)cc(C)n4n3)cc2)cc1	-7	-7.0
O=c1cc(-c2ccccc2)ss1	-1	5.7
NC(=S)NN=C1Cc2cccc3cccc1c23	-4	-5.6
C[C@H]1CN(S(=O)(=O)C(C)(C)C)[C@H](CCO)/C1=C\c1ccccc1	2	1.2
CCOC(=O)c1cc(NC(=O)c2ccccc2)c(=O)oc1C(F)(F)F	-3	6.8
Cc1ccc(NC(=O)c2cc(S(=O)(=O)N3CCOCC3)ccc2Cl)cc1S(=O)(=O)N1CCOCC1	-7	4.8
CCCCn1c(N)c(N(CCC(C)C)C(=O)CSc2nc3ccccc3n2C)c(=O)[nH]c1=O	1	-4.5
C=C1c2cccc(OC)c2O[C@H](C(=O)OCC)[C@@H]1CCCCCC	1	-2.3
O=C(CCNC(=O)c1ccccc1Cl)NCC1COc2ccccc2O1 (stereo not given)	-2	-0.3
COCCN(Cc1nc2ccccc2c(=O)[nH]1)C(=O)COc1ccccc1-c1ccccc1	8	3.4
C=CCn1c(SCC(=O)c2c(N)n(C3CC3)c(=O)[nH]c2=O)nnc1-c1ccc(OC)cc1	-2	0.5
Cc1noc(C)c1S(=O)(=O)N(C)C[C@H]1Oc2c(NC(=O)Nc3ccc4c(c3)OCO4)cccc2C(=O)N([C@H](C)CO)C[C@@H]1C	2	2.2
O=C(CNC(=O)C12CC3CC(CC(C3)C1)C2)OCc1ccc(F)cc1Cl	-1	-0.3
COc1cc(/C=C/C(=O)OCC(=O)Nc2c(C)n(C)n(-c3ccccc3)c2=O)cc(OC)c1OC	-3	-7.2
CCCCCCCSc1ncnc2[nH]ncc12	-2	3.5
CC(C)N(C(=O)[C@H]1C[C@H](CC(=O)NCCC2=CCCCC2)C(=O)N2CCc3c([nH]c4cc(CCC(=O)N(C)C)ccc34)[C@]12C)C(C)C	0	4.4
CCc1c(Nc2ccccc2C)nc(N)[nH]c1=O	-6	0.4
c1coc(C2=NC(c3ccco3)C(c3ccco3)N2)c1 (stereo not given)	-13	-1.1
COc1ccc(NS(=O)(=O)c2ccc(C(=O)N(C)Cc3cccs3)cc2)cc1	8	4.5
COc1ccc(NS(=O)(=O)c2cc([N+](=O)[O-])ccc2N/N=C/c2c(C)[nH]c3ccccc23)cc1	-390	11
CCN(C(=O)COC(=O)/C=C/c1ccc(OC)c(OC)c1)c1c(N)n(Cc2ccccc2)c(=O)[nH]c1=O	-7	-20
COCCN(C(=O)c1cc(CN2C(=O)c3ccccc3C2=O)ccc1OC)c1c(N)n(CC(C)C)c(=O)[nH]c1=O	0	-2.2
Cn1c(=O)c2ncn(C)c2n(C)c1=O	-1	0.3

Source: PubChem (several laboratories)

Only part of the results is shown; the hit share may differ from the screen's.
